GIV-Gai inh: inhibitors of GIV peptide binding to Galpha-i3, primary screen, biochemical, fluorescence polarization, FITC-GIV GBA peptide, rat Galphai3. Guanine nucleotide-binding protein G(i) subunit alpha-3 (Rattus norvegicus), P08753. 90 min; active compounds read low; scaled: aluminum fluoride 0%, vehicle 100%. percent of control (FP), % (no concentration beside the values). 210,000 tested, 0.42% active;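 active means replicate mean at 85% of control or lower, very high polarization wells dropped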;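 further: wells of about 15 µL received 100 nL stock; the first replicate is given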
Target sequence (P08753 whole entry, looked up): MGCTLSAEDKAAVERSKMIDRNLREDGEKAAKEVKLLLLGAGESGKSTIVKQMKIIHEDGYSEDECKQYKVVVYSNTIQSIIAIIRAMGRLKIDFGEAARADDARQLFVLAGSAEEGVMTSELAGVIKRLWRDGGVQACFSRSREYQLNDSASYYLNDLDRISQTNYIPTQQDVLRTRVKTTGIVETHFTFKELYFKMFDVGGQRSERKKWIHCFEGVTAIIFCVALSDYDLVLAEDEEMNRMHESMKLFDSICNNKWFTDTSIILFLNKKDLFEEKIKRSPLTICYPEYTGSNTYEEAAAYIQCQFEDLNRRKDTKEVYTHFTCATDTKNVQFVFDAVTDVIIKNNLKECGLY
Sa growth 42C: S. aureus growth inhibition at 42 and 30 °C, primary screen, LtaS inhibitor project, RN4220, two temperatures | OD600, 20 h, 42 °C; active compounds read low | relative growth, % (no concentration beside the values) | 170,000 tested, 0.53% active | AID 720641, 2013;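 active means growth at 42 °C up to 50% and 20 or more points under that at 30 °C, or under 10% at both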;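 further: 300 nL library stock went into each well; scaled to the means of positive and negative controls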
HCMV NEC inh: inhibitors of HCMV UL50-UL53 interaction, biochemical, HTRF; HCMV UL50-UL53 nuclear egress complex (human cytomegalovirus); normalized percent inhibition; inhibition, % (concentration not given with the values); 190,000 tested, 0.15% active; AID 1918969, 2023;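 active means both replicates at 50% or more, plus weaker picks with an unusually low signal ratio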;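 further: stock transfer was 100 nL into about 20 µL; 0% = negative control wells and 100% = wells with untagged competitor protein; inactives centre near -12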
Sa growth 42C second temp: also measured in Sa growth 42C; calls as there; relative growth, %; measured here: growth at 30 °C;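 optical density after 20 h as mean of two plates; 100% = untreated growth and lower means inhibition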
An asterisk follows results filed as active; & = joins results of further samples.

What do the screens show for `O=C(CSc1ncc(CO)n1Cc1ccccc1)N1CCc2ccccc21`?
GIV-Gai inh: 102; Sa growth 42C: 105; HCMV NEC inh: -26; Sa growth 42C second temp: 83

Results for O=C(CSc1nc2c(oc3ccccc32)c(=O)n1C1CCCC1)Nc1nccs1 ?
GIV-Gai inh: 102; Sa growth 42C: 97; HCMV NEC inh: -2; Sa growth 42C second temp: 81

What do the screens show for `CCN(CC)S(=O)(=O)c1ccc(S(=O)(=O)NCc2ccc3c(c2)OCO3)cc1`?
GIV-Gai inh: 98; Sa growth 42C: 89; HCMV NEC inh: -3; Sa growth 42C second temp: 87

What do the screens show for `CC1NC(=S)N(c2ccc(C(C)C)cc2)C1=O` (stereo not given)?
Sa growth 42C: 81; HCMV NEC inh: -1; Sa growth 42C second temp: 63

How did CC(=O)N1CCC2(CC1)CC(=O)c1cc(OCC(=O)NCc3ccccc3)ccc1O2 do in these assays?
GIV-Gai inh: 105; Sa growth 42C: 93; HCMV NEC inh: 3; Sa growth 42C second temp: 100

Results for COc1cccc(-c2nc(COc3ccccc3-c3nnc(-c4ccccc4)o3)c(C)o2)c1OC ?
GIV-Gai inh: 106; HCMV NEC inh: -33

What do the screens show for `Cc1nnc(SCC(=O)Nc2cc(-c3ccc(Cl)cc3)nn2C)n1C`?
Sa growth 42C: 72; HCMV NEC inh: -27; Sa growth 42C second temp: 88

How did COCCNC(=O)NCCc1nc2cccnc2n1-c1ccccc1 do in these assays?
GIV-Gai inh: 107; HCMV NEC inh: -20

What do the screens show for `COc1ccc(C(N)CCc2ccco2)cc1` (stereo not given)?
GIV-Gai inh: 112; Sa growth 42C: 102; HCMV NEC inh: -5; Sa growth 42C second temp: 89

What do the screens show for `NC(=S)NN=C1Cc2ccccc2C1`?
GIV-Gai inh: 104; Sa growth 42C: 71; HCMV NEC inh: -71; Sa growth 42C second temp: 22

How did CCn1cc(C(=O)N(C)Cc2ccccc2)c(=O)c2cc(S(=O)(=O)N3CCCCCC3)ccc21 do in these assays?
GIV-Gai inh: 98; Sa growth 42C: 99; HCMV NEC inh: -30; Sa growth 42C second temp: 82

What do the screens show for `O=C(CCn1c(=O)oc2ccccc21)n1c(=O)oc2ccccc21`?
GIV-Gai inh: 99; Sa growth 42C: 101; HCMV NEC inh: 10; Sa growth 42C second temp: 104

How did COc1ccc(OC)c(NC(=O)CSc2ncnc3c2oc2ccccc23)c1 do in these assays?
GIV-Gai inh: 102; Sa growth 42C: 118; HCMV NEC inh: -1; Sa growth 42C second temp: 93

How did CCOC(=O)c1c[nH]c2cc(Cl)cc(Cl)c2c1=O do in these assays?
GIV-Gai inh: 100; HCMV NEC inh: -7

Results for COc1ccc(CNC(=O)c2cccc(NC(C)=O)c2)cc1OC ?
Sa growth 42C: 77; HCMV NEC inh: -27; Sa growth 42C second temp: 97

How did Cc1ccc(NC(=O)N2CCOc3ccccc32)cc1 do in these assays?
GIV-Gai inh: 95; HCMV NEC inh: 9

How did Oc1[nH]c2ccccc2c1C=NCCC1=CCCCC1 do in these assays?
GIV-Gai inh: 99; Sa growth 42C: 118; HCMV NEC inh: -27; Sa growth 42C second temp: 114

What do the screens show for `CCOc1cc(C(=O)Nc2cc3c(cc2N2CCOCC2)n(C)c(=O)n3C)cc(OCC)c1OCC`?
GIV-Gai inh: 100; Sa growth 42C: 103; HCMV NEC inh: -7; Sa growth 42C second temp: 91

How did Cc1ccc(S(=O)(=O)C2(C(=O)NC3CCCC3)CC2)cc1 do in these assays?
GIV-Gai inh: 103; Sa growth 42C: 122; HCMV NEC inh: -6; Sa growth 42C second temp: 84

What do the screens show for `CC1CCCCN1C(=O)COC(=O)c1ccccc1NCc1ccco1` (stereo not given)?
Sa growth 42C: 104; HCMV NEC inh: -19; Sa growth 42C second temp: 95

What do the screens show for `Cc1ccc(-c2nc3ncccc3o2)cc1NC(=O)c1ccccc1Br`?
GIV-Gai inh: 105; Sa growth 42C: 100; HCMV NEC inh: -43; Sa growth 42C second temp: 83

Results for CC(C)CCNC(=O)c1c[nH]n2c(=O)cc(CSc3ccc(Cl)cc3)nc12 ?
GIV-Gai inh: 104; Sa growth 42C: 68; HCMV NEC inh: -4; Sa growth 42C second temp: 47

How did CCN=C1S/C(=C\c2cn(CC(=O)NCc3ccco3)c3ccccc23)C(=O)N1CC do in these assays?
GIV-Gai inh: 103; Sa growth 42C: 94; HCMV NEC inh: -17; Sa growth 42C second temp: 100

Results for CCCCSCCCNC(=O)C1CCC(CNS(=O)(=O)c2c(C)cc(C)cc2C)CC1 (stereo not given) ?
GIV-Gai inh: 105; Sa growth 42C: 107; Sa growth 42C second temp: 82

How did CC(C)CNc1cnnc2c(Cl)cccc12 do in these assays?
GIV-Gai inh: 107; Sa growth 42C: 105; HCMV NEC inh: -73; Sa growth 42C second temp: 87

What do the screens show for `O=c1c2cnn(-c3ccc(F)cc3)c2ncn1Cc1ccc(F)cc1`?
GIV-Gai inh: 101; Sa growth 42C: 99; HCMV NEC inh: -31; Sa growth 42C second temp: 84

How did O=c1cc(NCCNc2cc(=O)oc3ccccc23)c2ccccc2o1 do in these assays?
GIV-Gai inh: 119; Sa growth 42C: 107; HCMV NEC inh: -13; Sa growth 42C second temp: 97

Results for CC1(C)N=C(Nc2ccccc2)SC1=N ?
GIV-Gai inh: 99; Sa growth 42C: 81; Sa growth 42C second temp: 85

How did O=C(c1cc(C2CC2)on1)N1CCCC1c1ccccc1Cl (stereo not given) do in these assays?
GIV-Gai inh: 107; HCMV NEC inh: 16

How did O=C(NCCN1CCCC1)C1CCN(c2ccc(Cl)cc2)C1=O (stereo not given) do in these assays?
GIV-Gai inh: 100; HCMV NEC inh: -28

Results for CCOc1ccc(S(=O)(=O)NCCc2sc(-c3ccc(C)cc3)nc2C)cc1 ?
GIV-Gai inh: 102; Sa growth 42C: 96; Sa growth 42C second temp: 91

What do the screens show for `CSc1ccc(Cn2nnc(C(=O)Nc3ccc(C)cc3Cl)c2N)cc1`?
GIV-Gai inh: 103; Sa growth 42C: 100; HCMV NEC inh: -12; Sa growth 42C second temp: 96

How did Cc1nc(NCCCn2ccnc2)c2ccccc2n1 do in these assays?
Sa growth 42C: 103; HCMV NEC inh: -36; Sa growth 42C second temp: 78

Results for CNC(=S)NNc1nc(N2CCCC2)nc(N2CCCC2)n1 ?
GIV-Gai inh: 102; Sa growth 42C: 104; HCMV NEC inh: -24; Sa growth 42C second temp: 86

What do the screens show for `Cn1nc(OCC(=O)Nc2ccc(Cl)cc2Cl)cc1C(F)(F)F`?
GIV-Gai inh: 106; Sa growth 42C: 79; HCMV NEC inh: -6; Sa growth 42C second temp: 91

What do the screens show for `CCOC(=O)c1ccc(NC(=O)c2c(NCc3cccs3)sc3c2CCCC3)cc1`?
GIV-Gai inh: 106; Sa growth 42C: 85; Sa growth 42C second temp: 81

How did CCN(CC)CC(=O)N1N=C(c2ccc(OC)cc2)CC1c1cccc(OC)c1OC (stereo not given) do in these assays?
GIV-Gai inh: 105; Sa growth 42C: 105; HCMV NEC inh: -17; Sa growth 42C second temp: 88

What do the screens show for `Cc1cc(C)n(-c2nc3ccccc3nc2N2CCN(S(=O)(=O)c3ccc(N4CCCC4=O)cc3)CC2)n1`?
GIV-Gai inh: 101; HCMV NEC inh: -12

What do the screens show for `Cc1ccc(Cl)cc1N1CCN(C(=O)c2noc3c2CCCC3)CC1`?
GIV-Gai inh: 99; Sa growth 42C: 82; Sa growth 42C second temp: 71

How did O=S(=O)(c1ccccc1Oc1ccc(Cl)cc1Cl)N1CCOCC1 do in these assays?
GIV-Gai inh: 98; Sa growth 42C: 94; HCMV NEC inh: -7; Sa growth 42C second temp: 90

Results for CC1(C)C=C(C(N)=O)C(C)(C)N1 ?
GIV-Gai inh: 95; Sa growth 42C: 87; HCMV NEC inh: -4; Sa growth 42C second temp: 94

What do the screens show for `COc1cccc(NC(=O)Cn2c(=O)n(-c3ccc(Cl)cc3)c(=O)c3sc4ccccc4c32)c1`?
GIV-Gai inh: 99; Sa growth 42C: 95; HCMV NEC inh: -32; Sa growth 42C second temp: 87

How did CC(C)(C)c1cc(/C=N/n2c(N)nc3ccccc32)cc(C(C)(C)C)c1O do in these assays?
Sa growth 42C: 125; HCMV NEC inh: -16; Sa growth 42C second temp: 84

What do the screens show for `Cc1nc2ccccc2nc1CSc1nnc2ccccn12`?
Sa growth 42C: 68; HCMV NEC inh: -39; Sa growth 42C second temp: 48

How did CCOC(=O)Cc1csc(NC(=O)c2ccc(Cl)cc2)n1 do in these assays?
GIV-Gai inh: 105; Sa growth 42C: 110; HCMV NEC inh: 0; Sa growth 42C second temp: 97

Results for N/C(=N/O)c1nccnc1Sc1ccc(Cl)cc1 ?
GIV-Gai inh: 107; Sa growth 42C: 110; HCMV NEC inh: 13; Sa growth 42C second temp: 102

How did O=c1[nH]cnc2scc(-c3ccsc3)c12 do in these assays?
GIV-Gai inh: 109; Sa growth 42C: 109; HCMV NEC inh: -23; Sa growth 42C second temp: 77

What do the screens show for `O=C(CSc1nc2ccccc2c(=O)[nH]1)c1ccc(S(=O)(=O)N2CCCCC2)cc1`?
Sa growth 42C: 83; HCMV NEC inh: -26; Sa growth 42C second temp: 83

What do the screens show for `CC1CCCC1/C(=N/O)c1ccccc1` (stereo not given)?
GIV-Gai inh: 101; Sa growth 42C: 92; HCMV NEC inh: -12; Sa growth 42C second temp: 101

How did CN(Cc1ccccc1)CC(O)COCC1=CCC2CC1C2(C)C (stereo not given) do in these assays?
Sa growth 42C: 112; HCMV NEC inh: 23; Sa growth 42C second temp: 106

Results for O=C(/C=C/c1ccccc1)N1CCC(c2ccccc2)C1 (stereo not given) ?
GIV-Gai inh: 103; Sa growth 42C: 101; Sa growth 42C second temp: 88

Results for C#CC(C)(C)NC(=O)c1cccnc1Oc1ccccc1 ?
GIV-Gai inh: 103; Sa growth 42C: 90; HCMV NEC inh: -38; Sa growth 42C second temp: 88

What do the screens show for `Cc1ccc(OCCSc2nc3ccccc3n2CCC(=O)O)cc1`?
GIV-Gai inh: 104&104; Sa growth 42C: 100&97; HCMV NEC inh: 2; Sa growth 42C second temp: 94&81

Results for O=C1C=CC(=O)N1c1ccc(-c2csnn2)cc1 ?
GIV-Gai inh: 99; Sa growth 42C: 43; HCMV NEC inh: -2; Sa growth 42C second temp: 20

What do the screens show for `COc1ccccc1C(=O)Nc1cc2c(cc1SC1CCCCC1)n(C)c(=O)n2C`?
GIV-Gai inh: 108; HCMV NEC inh: -10

What do the screens show for `O=C1NCCN1C(=O)C(c1ccccc1)c1ccccc1`?
Sa growth 42C: 96; HCMV NEC inh: -21; Sa growth 42C second temp: 88

What do the screens show for `Clc1nc2ccc(Br)cc2s1`?
GIV-Gai inh: 104; Sa growth 42C: 105; HCMV NEC inh: -16; Sa growth 42C second temp: 92

Structures shown so far that contain two or more sulfur atoms, in the order listed:
Results for O=C(CSc1nc2c(oc3ccccc32)c(=O)n1C1CCCC1)Nc1nccs1 ?
GIV-Gai inh: 102; Sa growth 42C: 97; HCMV NEC inh: -2; Sa growth 42C second temp: 81

What do the screens show for `CCN(CC)S(=O)(=O)c1ccc(S(=O)(=O)NCc2ccc3c(c2)OCO3)cc1`?
GIV-Gai inh: 98; Sa growth 42C: 89; HCMV NEC inh: -3; Sa growth 42C second temp: 87

Results for CCCCSCCCNC(=O)C1CCC(CNS(=O)(=O)c2c(C)cc(C)cc2C)CC1 (stereo not given) ?
GIV-Gai inh: 105; Sa growth 42C: 107; Sa growth 42C second temp: 82

Results for CCOc1ccc(S(=O)(=O)NCCc2sc(-c3ccc(C)cc3)nc2C)cc1 ?
GIV-Gai inh: 102; Sa growth 42C: 96; Sa growth 42C second temp: 91

What do the screens show for `CCOC(=O)c1ccc(NC(=O)c2c(NCc3cccs3)sc3c2CCCC3)cc1`?
GIV-Gai inh: 106; Sa growth 42C: 85; Sa growth 42C second temp: 81

How did O=c1[nH]cnc2scc(-c3ccsc3)c12 do in these assays?
GIV-Gai inh: 109; Sa growth 42C: 109; HCMV NEC inh: -23; Sa growth 42C second temp: 77

What do the screens show for `O=C(CSc1nc2ccccc2c(=O)[nH]1)c1ccc(S(=O)(=O)N2CCCCC2)cc1`?
Sa growth 42C: 83; HCMV NEC inh: -26; Sa growth 42C second temp: 83

Source: PubChem
